GIRK2 act = opens human GIRK2 potassium channels. HEK293-GIRK2 thallium flux, Thallos fluorescence. calls only for hits at 25 µM. actives 0.05% (n = 63,000). P48051. AID 1259325;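 active = among the strongest 0.2% of first-round signals and kept after retests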;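 note: first round at about 10 µM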
Target sequence (P48051 whole entry, looked up): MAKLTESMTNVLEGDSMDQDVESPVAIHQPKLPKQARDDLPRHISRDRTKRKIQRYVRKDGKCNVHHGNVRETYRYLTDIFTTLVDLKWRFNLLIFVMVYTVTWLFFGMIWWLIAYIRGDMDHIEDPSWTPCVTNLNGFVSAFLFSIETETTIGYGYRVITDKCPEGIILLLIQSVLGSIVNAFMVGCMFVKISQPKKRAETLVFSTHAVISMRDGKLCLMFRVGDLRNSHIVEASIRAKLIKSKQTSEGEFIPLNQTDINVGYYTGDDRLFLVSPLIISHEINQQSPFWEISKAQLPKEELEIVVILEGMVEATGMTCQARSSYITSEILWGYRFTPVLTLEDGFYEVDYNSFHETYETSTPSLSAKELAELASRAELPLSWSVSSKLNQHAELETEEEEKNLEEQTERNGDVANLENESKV
Calls only; i = inactive.

SMILES,GIRK2 act
O=C(C1CC(=O)N(c2cccc(Br)c2)C1)N1CCC(Cn2ccnc2)CC1 (centres undefined),i
CCc1nnc(C2CCN(C(=O)Nc3cccs3)CC2)s1,i
CN(Cc1ccccc1)C(=O)c1csc(-c2cc3ccccc3[nH]2)n1,i
COC(=O)C1=C(CS(=O)(=O)c2ccc(OC)cc2)NC(=O)NC1c1ccc(O)c(OC)c1 (centres undefined),i
COC(=O)C1c2ccsc2CCN1C(=O)c1ccccn1 (centres undefined),i
COc1ccc(-n2c(C)nc3ccc(NC(=O)c4ccc(OC)cc4OC)cc3c2=O)cc1,i
COc1cc2ncnc(SCC(=O)N3CCOCC3)c2cc1OC,i
CCCCCn1c(SCC(=O)C(C)(C)C)nc2cc(C(=O)N3CCOCC3)ccc2c1=O,i
COc1ccc(C)cc1NC(=O)Nc1cnc(Oc2ccccc2F)nc1,i
Cc1ccc(S(=O)(=O)N(C)c2c(C)ccc(S(=O)(=O)NCc3ccccc3)c2C)cc1,i
Cc1nnc(NC(=O)CCc2csc(NC(=O)c3ccco3)n2)s1,i
O=C(c1ccoc1)N1CCC(CNS(=O)(=O)c2cccc(C(F)(F)F)c2)CC1,i
CCOC(=O)Cn1c(=O)c2c(nc(-n3nc(C)c(C)c3C)n2C)n(C)c1=O,i
COc1ccc(NC(=O)c2cccc([N+](=O)[O-])c2)cc1OC,i
COc1ccc(CCNC(=O)CN2CCN(Cc3nc(-c4ccco4)cs3)CC2)cc1OC,i

Next results:
SMILES,GIRK2 act
CCOC(=O)c1c(-c2ccc(OC)cc2)oc2ccc(OC(=O)N3CCOCC3)cc12,i
Cc1cc(N2C(=O)CCS2(=O)=O)cc(C)c1S(=O)(=O)Nc1ccccc1F,i
O=C(c1ccccc1)N1CCCc2cc(NS(=O)(=O)c3cccc(F)c3)ccc21,i
COC(=O)c1c(NCc2cc(F)cc(F)c2)c2cc(Cl)ccc2[nH]c1=O,i
COc1ccc(Cl)cc1C(=O)NCCn1cnc(C)cc1=O,i
Cc1cc(C)n(-c2ccc(=O)n(CCNS(=O)(=O)/C=C/c3ccccc3)n2)n1,i
CCOc1ccc(-c2noc(CSc3nc4cc5c(cc4c(=O)n3CCCOC)OCO5)n2)cc1,i
CCCCC/C=C\C=C\C(O)CCCCCCCC(=O)OC[C@@H](COC(=O)CCCCCCC/C=C\C=C\C(O)CCCCC)OC(=O)CCCCCCC/C=C\C=C\C(O)CCCCC (some centres undefined),i
CCc1nc(-c2ccc(N3CCN(C(=O)c4cc(-c5ccco5)on4)CC3)nc2)no1,i
CC(C(=O)Nc1ccccc1OC(F)(F)F)n1nc(-c2ccco2)ccc1=O (centres undefined),i
COc1cc(OC)c(NC(=O)Cn2nc3c4c5c(sc4ncn3c2=O)CC(C)CC5)cc1Cl (centres undefined),i
Cc1ccc(S(=O)(=O)NC2CCCC(OC(=O)Nc3ccc(F)cc3)C2)s1 (centres undefined),i
COc1ccc(-c2cc3c(SCC(=O)Nc4ccc(C(C)=O)cc4)nccn3n2)cc1,i
Cc1ccc(-c2cnc(SCC(N)=O)n2-c2ccc(Cl)cc2)cc1,i
CC(C)Cn1c(=O)c2ccc(C(=O)NC(C)C)cc2n2c(=O)n(C)nc12,i

The results go on:
SMILES,GIRK2 act
CCc1ccc(NCc2cc3ccc(OC)cc3n(CC(=O)Nc3ccc(C)cc3C)c2=O)cc1,i
O=C(CCc1ccccc1)Nc1ccc2c(=O)c3ccccc3oc2c1,i
O=C(O)CCC/C=C\C[C@@H]1[C@@H](/C=C/[C@H](O)COc2cccc(C(F)(F)F)c2)[C@H](O)C[C@@H]1O,i
COc1ccc(-c2nnc(SCC(=O)Nc3ccc(C)cc3C)n2N)cc1OC,i
COc1ccccc1C(=O)Nc1cnc(N2CCCC2)nc1,i
CCOc1ccc(C2CC(=O)N3CCCN=C3S2)cc1 (centres undefined),i
COc1ccc(N2C(=O)C3N=NN(CC(=O)Nc4ccccc4C)C3C2=O)cc1Cl (centres undefined),i
COc1ccc(CN2CC(C(=O)NC3(c4nc(C)no4)CCCCC3)CC2=O)cc1 (centres undefined),i
CCOc1ccc(C(=O)Nc2nnc(-c3cccs3)o2)cc1,i
Cc1ccc(-c2nnc(NC(=O)c3cccc(Oc4ccccc4)c3)o2)c(C)c1,i
COc1cccc2cc(C(=O)NCC(O)c3ccc(C)o3)c(=O)oc12 (centres undefined),i
O=C(c1ccc(Br)o1)N1CCC(CSc2ccccn2)CC1,i
Cc1cc(C(O)CCNS(=O)(=O)c2cn(C)cn2)c(C)o1 (centres undefined),i
O=C(c1ccncc1)N1CCC(CNS(=O)(=O)c2ccc(C(F)(F)F)cc2)CC1,i
COc1cc(NC(=O)CN2CCC(c3nc(-c4cccs4)no3)CC2)cc(OC)c1,i

Additional records
SMILES,GIRK2 act
O=C(Nc1nccs1)C1CCN(C(=O)c2cccnc2)CC1,i
O=C(NCCC(O)c1ccoc1)c1cc2ccccc2o1 (centres undefined),i
COc1ccc(C(=O)N2CCOCC2CN(C)CCO)cc1OC (centres undefined),i
COc1ccc(NC(=O)c2nnn(Cc3nc(-c4ccccc4)oc3C)c2N)cc1OC,i
O=C(NCc1ccc(C(O)c2cccs2)s1)c1ccccc1Br (centres undefined),i
COc1ccc(CCNC(=O)Cn2c(=O)[nH]c3c(-c4ccccc4F)c[nH]c3c2=O)cc1OC,i
CS(=O)(=O)Nc1cccc(NC(=O)/C=C/c2ccco2)c1,i
COc1ccc(Cl)cc1NC(=O)Nc1ccc2c(c1)CCCN2C(=O)C1CC1,i
Cc1ccc(Sc2ccc3nn(CC(=O)Nc4ccc(F)c(Cl)c4)c(=O)n3n2)cc1,i
O=C(NCCCS(=O)(=O)N1CCN(c2ccccc2)CC1)c1ccc2ccccc2c1,i
COc1ccc(-c2cc3c(=O)n(CC(=O)NCc4cccs4)ccn3n2)cc1OC,i
O=C(NCCn1ncccc1=O)C1(c2cccs2)CCCC1,i
Cc1c(C(=O)Nc2ccc(C(=O)O)cc2)nnn1-c1ccccc1,i
Cc1cc(N)nc(NNC(=O)c2ccc(Cl)cc2Cl)n1,i
Cc1cc(C)nc(Nc2nc(C(=O)Nc3nc4ccc(Cl)cc4s3)cs2)n1,i

Entries shown so far with a COOH group (2):
SMILES,GIRK2 act
O=C(O)CCC/C=C\C[C@@H]1[C@@H](/C=C/[C@H](O)COc2cccc(C(F)(F)F)c2)[C@H](O)C[C@@H]1O,i
Cc1c(C(=O)Nc2ccc(C(=O)O)cc2)nnn1-c1ccccc1,i

Following part.
SMILES,GIRK2 act
CC(C)Oc1ccc(C(=O)N2CCC(CSc3nccn3C)CC2)cc1,i
O=C(CCCCCn1cnc2ccccc2c1=O)Nc1cccc(F)c1,i
COCCCn1c(C(=O)N2CCCCCC2)cc2c(=O)n3ccccc3nc21,i
O=C(Nc1ccccc1)N1CCN(Cc2csc(-c3ccccc3)n2)CC1,i
CCOC(=O)CNC(=O)C1CN(C(=O)c2cc(C)on2)C1,i
Cc1ccc(NC(=O)c2cc([N+](=O)[O-])ccc2Cl)c(C(=O)c2ccccc2)c1,i
O=C(c1cc(-c2ccc3c(c2)OCCO3)on1)N1CCN(C(c2ccccc2)c2ccccc2)CC1,i
CCC(=O)Oc1ccc2c(c1)O/C(=C\c1ccc(OC)c(OC)c1)C2=O,i
Cc1cc(=O)n(CC(=O)N2CCOCC2)c(N2CCOCC2)n1,i
O=C(NCC1CCN(C(=O)c2cccnc2)CC1)c1cnccn1,i
COc1ccc(NC(=O)CSc2nccn2-c2ccc(C(=O)NCc3ccccc3F)cc2)cc1,i
Cc1noc(-c2cccnc2N2CCC(NC(=O)COc3ccc(Cl)cc3)CC2)n1,i
CS(=O)(=O)N1CCC(C(=O)NCCn2ccc(-c3ccncc3)n2)CC1,i
Cc1cc(C(=O)N2CCC(Cn3ccnc3)CC2)no1,i
O=S(=O)(NCCOc1ccc2c(c1)OCO2)c1ccc2c(c1)CCCC2,i

A draw from above in order of length of the SMILES, highest first:
SMILES,GIRK2 act
O=C(c1cc(-c2ccc3c(c2)OCCO3)on1)N1CCN(C(c2ccccc2)c2ccccc2)CC1,i
Cc1ccc(NC(=O)c2cc([N+](=O)[O-])ccc2Cl)c(C(=O)c2ccccc2)c1,i
COc1ccc(NC(=O)CSc2nccn2-c2ccc(C(=O)NCc3ccccc3F)cc2)cc1,i
Cc1noc(-c2cccnc2N2CCC(NC(=O)COc3ccc(Cl)cc3)CC2)n1,i
CCC(=O)Oc1ccc2c(c1)O/C(=C\c1ccc(OC)c(OC)c1)C2=O,i
CS(=O)(=O)N1CCC(C(=O)NCCn2ccc(-c3ccncc3)n2)CC1,i
O=S(=O)(NCCOc1ccc2c(c1)OCO2)c1ccc2c(c1)CCCC2,i
O=C(Nc1ccccc1)N1CCN(Cc2csc(-c3ccccc3)n2)CC1,i
Cc1c(C(=O)Nc2ccc(C(=O)O)cc2)nnn1-c1ccccc1,i
Cc1cc(=O)n(CC(=O)N2CCOCC2)c(N2CCOCC2)n1,i
CCOC(=O)CNC(=O)C1CN(C(=O)c2cc(C)on2)C1,i
Cc1cc(N)nc(NNC(=O)c2ccc(Cl)cc2Cl)n1,i
Cc1cc(C(=O)N2CCC(Cn3ccnc3)CC2)no1,i

Going on with the list:
SMILES,GIRK2 act
Cc1ccc(Cn2cnc3c2c(=O)n(C)c(=O)n3C)cc1,i
COCCn1c(-n2nc(C)cc2C)nc2c1c(=O)n(Cc1cccc(C)c1)c(=O)n2C,i
CC(C)(O[C@@H]1O[C@H](CO)[C@@H](O)[C@H](O)[C@H]1O)C(OC(=O)/C=C/c1ccc(O)cc1)C(=O)OCc1ccc(O[C@@H]2O[C@H](CO)[C@@H](O)[C@H](O)[C@H]2O)cc1 (some centres undefined),i
COc1ccc(NC(=O)NCCn2ncccc2=O)c(OC)c1,i
O=C(NCCOc1ccccc1)NCc1ccsc1,i
CC(C)c1cccc(NC(=O)CN2C(=O)NC(c3cccc(Cl)c3)C3=C2COC3=O)c1 (centres undefined),i
CC(=O)Oc1ccc2c(c1C)O/C(=C\c1ccc3c(c1)OCO3)C2=O,i
CCn1cc(C(=O)NCc2nnc(C)o2)c(=O)c2ccc(C)nc21,i
COc1cccc(NC(=O)N2CCC(Oc3ncccc3Cl)CC2)c1OC,i
CC(C)(C)NC(=O)N1CCC2(CC1)OCCS2,i
COCCNS(=O)(=O)c1ccc(OC)c(N(C)S(=O)(=O)c2ccc(C)cc2)c1,i
COc1cc(S(=O)(=O)N2CCN(C(=O)c3ccco3)CC2)ccc1Br,i
Cc1ccc(NC(=O)Nc2cnc(N3CCN(C)CC3)nc2)c(Cl)c1,i
COCC(=O)Nc1cc(C)nn1-c1nc(-c2ccc(OC)c(OC)c2)cs1,i
CCCc1nnsc1C(=O)NC1CC(O)C(CO)C1 (centres undefined),i

Remaining list, next part
SMILES	GIRK2 act
Cc1nnc(C2CCCN(S(=O)(=O)c3ccc(C(C)(C)C)cc3)C2)s1 (centres undefined)	i
O=C(N1CCC(CSc2ccccn2)CC1)C12CC3CC(CC(C3)C1)C2	i
C=CCNc1nc2c(c(=O)[nH]c(=O)n2C)n1CCCOc1ccccc1	i
Cn1c(=O)n(CC(=O)O)c(=O)c2c1nc1n2CCN1c1ccc(Cl)cc1	i
CC(=O)Nc1ccc(N2C(=O)/C(=C/c3ccc4c(c3)OCO4)SC2=S)cc1	i
COC(=O)N1CCC(CNS(=O)(=O)c2ccc(N3CCCCS3(=O)=O)cc2)CC1	i
CCOC(=O)N1CCN(C(=O)Cn2nc(C3CC3)n(-c3ccccc3)c2=O)CC1	i
Cc1nc(N)n(CC(=O)N2CCc3ccccc32)c(=O)c1C	i
COc1ccccc1S(=O)(=O)NCC(C)(O)c1ccc(-c2ccccc2)cc1 (centres undefined)	i
O=C(Cn1ccn2nc(-c3ccccc3)cc2c1=O)Nc1ccc(OCc2ccccc2)cc1	i
O=C(/C=C/c1cccs1)NCC1CCN(C(=O)Oc2ccccc2)CC1	i
Cc1cc(C)n(-c2ccc(=O)n(CC(=O)Nc3cc(N4CCCC4)ncn3)n2)n1	i
O=c1n(Cc2cccc(C(F)(F)F)c2)nc2c(S(=O)(=O)N3CCCC3)cccn12	i
COc1ccccc1C1NC(=O)NC(C)=C1C(=O)Nc1ccc(Br)cc1 (centres undefined)	i
CSCC(C)(O)CNS(=O)(=O)c1cccc(C(F)(F)F)c1 (centres undefined)	i
O=C1CC(c2nc3ccccc3n2Cc2ccccc2F)CN1Cc1ccc(F)cc1 (centres undefined)	i
CCOC(=O)CN1CCN(c2nc3c(c(=O)[nH]c(=O)n3C)n2Cc2cc(C)ccc2C)CC1	i
Cc1nccn1-c1cc(NCCNC(=O)c2ccc3c(c2)OCO3)ncn1	i
CCNc1cc(NCCNC(=O)Cc2ccc(Cl)cc2)nc(C)n1	i
Cc1cc(C)nc(Nc2nc(C(=O)NCCOc3ccc(F)cc3)cs2)n1	i
CN(CC(=O)Nc1nc2ccc(S(C)(=O)=O)cc2s1)c1nc2c(F)cccc2s1	i
COc1cccc2sc(N3CC(OC(=O)c4cccc(N5C(=O)CCC5=O)c4)C3)nc12	i
O=S(=O)(NCCOc1ccc2c(c1)OCO2)c1ccc(C(F)(F)F)cc1	i
CN1C(=O)c2cc(NC(=O)NCCc3ccccc3)ccc2Oc2ccccc21	i
O=C(Cc1ccccc1)NCC(Cc1cccc(F)c1)N1CCCC1=O (centres undefined)	i

Next part:
SMILES	GIRK2 act
COc1ccc(CCn2c(N3CCOCC3)nc3c2c(=O)[nH]c(=O)n3C)cc1	i
COc1ccccc1-c1nnc(C2CCN(C(=O)c3cc(C)on3)CC2)s1	i
CCN=C1NC2C(OC(CO)C(O)C2O)S1 (centres undefined)	i
CC(C)(C)NC(=O)N1CCC(Cn2ccnc2-c2ccccc2)CC1	i
CCOC(=O)c1sc(NC(=O)CN2CCC(Cn3cnc4ccccc43)CC2)nc1C	i
CCc1nc(NCC2CC2)ncc1C(=O)O	i
CC(=O)Nc1ccc(Cn2cnc(C(=O)Nc3ccc(F)cc3C)c2)cc1	i
O=C(Cc1ccc(NC(=O)NCCOc2ccccc2)cc1)NC1CC1	i
CCCn1nc(-c2ccccc2)c2sc(N3CCCC3)nc2c1=O	i
COc1ccc(-c2cc3c(=O)n(Cc4nc(-c5ccc(Cl)cc5)no4)ccn3n2)cc1	i

Screens (PubChem BioAssay)

These rows are one share of the data; count on the stated rates, not on these rows.
